# High-throughput results (PubChem)
# Six1-Eya2 inh: inhibitors of human Six1/Eya2 interaction; AID 651725; Q15475+O00167; 360,000 tested, 0.56% active; activity change, % (concentration not given with the values); AlphaScreen GST-Six1/His-Eya2 binding, biochemical; hits give low values; control for the full effect not named in the record; in the data active = activity change below about -65%; inconclusive = about -30% to -65%; inactive = above about -30%; further: on the % scale 0 is the no-effect control and ±100 the full control effect
#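 AlphaScreen luminescence read after one hour at 37 °C in darkness. Pin-transferred compounds met GST-Six1 and His-Eya2 protein (5X stock 250 nM/500 nM) plus glutathione donor and Ni-chelate acceptor beads (5X, 50 ug/mL).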
# D2 agonist: activates the human D2 dopamine receptor; P14416; DiscoveRx PathHunter D2 beta-arrestin, luminescence, 90 min; 100% = 57 uM dopamine signal; 360,000 tested, 0.084% active; activation, % (test concentration not listed); in the data active = activation above about 40%; inconclusive = about 15% to 40%; inactive = below about 15%; further: compound concentration not given in the record; the text of the record calls up to 30% inactive
# Target sequence (P14416 whole entry, looked up): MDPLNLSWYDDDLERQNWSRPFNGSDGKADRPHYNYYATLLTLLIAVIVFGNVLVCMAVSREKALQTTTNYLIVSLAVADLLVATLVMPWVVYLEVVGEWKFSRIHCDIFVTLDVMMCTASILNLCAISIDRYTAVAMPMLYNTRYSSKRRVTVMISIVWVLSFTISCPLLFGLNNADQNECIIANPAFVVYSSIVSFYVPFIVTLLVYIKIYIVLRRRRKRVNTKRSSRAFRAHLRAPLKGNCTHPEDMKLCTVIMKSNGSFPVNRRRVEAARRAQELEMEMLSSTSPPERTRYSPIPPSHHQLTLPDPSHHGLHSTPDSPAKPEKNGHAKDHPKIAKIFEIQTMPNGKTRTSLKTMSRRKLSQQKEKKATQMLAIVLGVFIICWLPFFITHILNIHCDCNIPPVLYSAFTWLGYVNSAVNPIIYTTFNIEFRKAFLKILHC
#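 DiscoveRx PathHunter D2 beta-arrestin cells (2,100/well) attached overnight, then compound-stimulated 90 min at 37 C in HBSS/10 mM HEPES/0.1% Tween-20 buffer; beta-galactosidase complementation read by luminescence after 1 h at ambient temperature. Dopamine 57 uM final (EC100) as control.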
# PINK1 modulator: PINK1 expression modulation; PINK1 immunofluorescence, high-content cytometry, 24 h; Potency, µM (highest dose often 76.6 µM), for inactives: at the top dose activation (PINK1 increase), most hits filed as activators; 410,000 tested, 0.2% active; AID 624263; active = well fitted activation curve with a large enough effect; inconclusive = small, poorly fitted or top-dose-only effect; inactive = flat fitted curve, though single readings scatter; cell line not stated here;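 further: potency means the concentration at half of the fitted maximal effect; % of control where 0% means no effect; nearly all actives have a fitted effect of over 65% in size; a mitochondrial uncoupler was the plate control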
#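 Stable cell line treated 24 h with compounds at 5 concentrations (CCCP controls), then fixed and immunostained for PINK1 plus nuclear and cell stains; PINK1 immunofluorescence quantified by laser-scanning microplate cytometry.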
# TRPML1 ag: agonists of human TRPML1 channel; TRPML1-expressing cells, Ca2+ dye fluorescence, FDSS; host cell line not named in the record; reference of the full effect not given here; activation, % (no concentration beside the values); 410,000 tested, 0.12% active; AID 624414; in the data active = activation above about 50%; inconclusive = about 30% to 50%; inactive = below about 30%; further: 0% is about no effect; the text of the record puts the active cut at 80%
# Target sequence (Q9GZU1 whole entry, looked up): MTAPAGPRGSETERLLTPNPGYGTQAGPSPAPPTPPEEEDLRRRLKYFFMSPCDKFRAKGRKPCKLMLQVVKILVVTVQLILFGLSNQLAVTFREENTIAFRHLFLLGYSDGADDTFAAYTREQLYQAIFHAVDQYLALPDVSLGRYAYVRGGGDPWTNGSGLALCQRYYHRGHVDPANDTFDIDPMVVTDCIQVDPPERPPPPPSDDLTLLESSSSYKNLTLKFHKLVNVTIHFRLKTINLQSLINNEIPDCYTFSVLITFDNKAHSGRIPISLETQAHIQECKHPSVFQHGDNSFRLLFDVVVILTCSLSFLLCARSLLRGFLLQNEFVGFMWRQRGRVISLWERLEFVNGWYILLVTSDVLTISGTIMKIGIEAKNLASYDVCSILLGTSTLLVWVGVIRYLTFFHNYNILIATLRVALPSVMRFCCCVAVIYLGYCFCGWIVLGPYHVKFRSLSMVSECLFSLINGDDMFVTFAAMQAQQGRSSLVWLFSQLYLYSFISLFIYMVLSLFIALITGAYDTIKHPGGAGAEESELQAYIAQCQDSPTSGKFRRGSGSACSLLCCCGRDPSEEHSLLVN
#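 Calcium fluorescence on an FDSS kinetic reader gave the read-out. Tet-induced TRPML1-DL cells were plated overnight, dye-loaded (Ca8 with quencher, 45-90 min, room temperature, dark), then read 110 s after compound addition, and again 110 s after 4uM final 54-4 (EC80).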
# TRPML1 blocker: human mucolipin-1 channel inhibition; Q9GZU1; TRPML1-inducible cells, Ca2+ dye fluorescence, FDSS; hits give low values; inhibition of EC80 agonist-evoked calcium signal; activity change, negative = inhibition, % (concentration not given with the values); 390,000 tested, 0.02% active; AID 624415; in the data active means activity change below about -50%; inconclusive means about -30% to -50%; inactive means above about -30%;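 further: stimulus is agonist 54-4 at its EC80 concentration; on the % scale 0 is the no-effect control and ±100 the full control effect; compound concentration not given in the record; the text of the record puts the active cut at -80%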
#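 TRPML1-DL cells, Tet-induced overnight (~16 h, 37 °C) at 1,500 cells/well, were loaded with Ca8 no-wash dye plus quencher for 45-90 min at room temperature. Compounds were pinned during FDSS kinetic reading; agonist 54-4 at EC80 (4 uM final) then added.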
# D2 PAM: potentiates the human D2 dopamine receptor allosterically; P14416; DiscoveRx D2 beta-arrestin cells, luminescence, 90 min; 100% = 57 uM dopamine signal; potentiation, % (test concentration not listed); 360,000 tested, 0.23% active; AID 624464; active = potentiation of 50% or more; inconclusive = 30% to 50%; inactive = 30% or less;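 further: compound concentration not given in the record; tested on top of an EC20 dose of dopamine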
#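 PathHunter D2 cells, attached overnight at 37 deg C, received compound in DMSO plus dopamine at EC20 (50 nM final) for 90 min at 37 deg C. Beta-arrestin recruitment was read as luminescence after 1 h with detection reagent at ambient temperature.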
# * = called active by the depositor; ? = inconclusive; . = no result given; [ ] = dose if it differs, or a comment. This is a random part of the collection; 1% or so of the library scored in one or more.
structure,TRPML1 blocker,TRPML1 ag,D2 agonist,PINK1 modulator,Six1-Eya2 inh,D2 PAM
CCCCNc1c(-c2ccc(SC(C)CC)c(OC)c2)nc2ccc(C)cn12 (configuration not stated),35,-0.4,13,3.9%,-10,-14
O=C(CSc1nc(=O)[nH]c2c1CCCC2)Nc1cc(C(F)(F)F)cc(C(F)(F)F)c1,-12,-0.1,-0.6,15%,9,-2
CN(C)CCC#CC1(O)c2ccccc2-c2ccccc21,.,.,0.4,0.3%,-2,6
COc1cc(-c2n[nH]c(=S)n2/N=C/c2cccn2C)cc(OC)c1OC,-3,?,-5.5,5.6%,-6,-11
O=C(CCn1c(=S)[nH]c2ccccc2c1=O)N1CCOCC1,-16,-0.2,-1.2,1.5%,-4,-6
O=C(NCc1cccnc1)c1cnn2ccccc12,25,-0.8,-0.4,0.5%,-3,-1
Cc1ccc(C(=O)CCNc2cccc(Br)c2)o1,-3,-1.1,-1.2,-0.6%,0,-6
Cc1ccccc1C(=O)NC(=S)NCC(=O)c1ccccc1,16,-0.6,-0.1,0.5%,-3,-7
Cc1oc(-c2ccccc2)nc1CS(=O)CC(=O)N1CCc2ccccc2C1 (configuration not stated),16,1.8,-2.0,7.1%,-4,-6
O=C(CCC1CCCN(C(=O)c2ccc3c(c2)OCO3)C1)N1CCN(c2ccccn2)CC1 (configuration not stated),-4,0.9,0.5,-0.4%,8,-1
Cc1cc(C)c(C)c(S(=O)(=O)N2CCN(C(=O)c3cc(=O)[nH]c4ccccc34)CC2)c1C,-4,0.8,1.6,-2.2%[38.3 µM],-2,4
Cc1nn(-c2nc3ccccc3s2)c(N)c1Sc1ccc(F)cc1,7,0.6,-2.4,?,7,-13
Cc1cccc(NC(=O)/C(C#N)=C/c2ccc[nH]2)c1C,-13,-0.6,-2.7,-0.7%,-4,-7
CCn1c(C(=O)N2CCC(C(=O)NCc3cccs3)CC2)cc2sccc21,11,0.2,0.7,0.9%,0,-2
O=C(Nc1ncccn1)c1cc(-c2ccc(F)cc2)nc2ccccc12,9,0.5,5.7,0.1%,2,3
CS(=O)(=O)Nc1ccc(C(=O)NCC2CCCO2)cc1 (configuration not stated),-7,-0.6,-0.8,1.3%,-1,-4
CSc1cccc(NC(=O)C2CCN(C(=O)c3cnn(-c4ccccc4)c3-n3cccc3)CC2)c1,-14,2.7,.,0.7%,.,.
COc1cccc(NS(=O)(=O)c2ccc3c(c2)CCCN3C(=O)C2CCC2)c1,7,-0.6,.,0.2%,.,.
COc1ccc(N(CC(=O)N2CCCC(C)C2)S(=O)(=O)c2c(C)nn(C)c2C)cc1 (configuration not stated),-3,0.3,0.3,-0.7%,4,-9
CCCN(CCC)Cc1cc(=O)oc2cc(OC)ccc12,.,-0.4,2.3,3.2%,1,-2
O=C(O)CC1(CC(=O)Nc2ccc(F)cc2F)CCCCC1,-14,-0.4,-5.1,3.1%,6,-16
Cc1cc(S(=O)(=O)Nc2cccc(-c3ccc(N4CCOCC4)nn3)c2)c(C)cc1Cl,2,-0.3,.,2.7%,.,.
CC(=O)Nc1ccc(N2C(=O)CSC2c2c(F)cccc2Cl)cc1 (configuration not stated),2,0.5,-1.9,.,-1,-3
CCCN1C(=O)/C(=C2\SC(=S)N(c3c(C)n(C)n(-c4ccccc4)c3=O)C2=O)c2ccccc21,-15,0.0,-0.1,-0.6%,3,4
CCN(CC)CCOC(=O)c1ccc(NC(=O)Cn2ncc3c2-c2cc(C)ccc2OC3)cc1,1,1.4,.,-0.5%,.,.
Cc1ccc(NS(=O)(=O)c2cccc(C(=O)OCC(=O)NCc3ccco3)c2)cc1,-2,-1.4,-1.3,1.2%,-21,-1
Cc1ccc(C(=O)NCC(=O)OCC(=O)N(CC(C)C)c2c(N)n(Cc3ccccc3)c(=O)[nH]c2=O)s1,6,-0.3,-0.9,-0.7%,3,-6
O=S(=O)(c1cccs1)N1CN(Cc2cccs2)c2nc3ccccc3nc21,39,-0.3,-1.2,1.6%,-5,-4
Cc1ccc(N=C(NO)c2nonc2N)c(C)c1,-10,0.4,-0.2,0.3%,-9,-2
O=S(=O)(NN1CCOCC1)c1ccc(Cl)s1,-1,0.3,-0.2,-0.2%,-1,-3
O=c1nc(-c2ccccc2)c2cc(Br)ccc2[nH]1,21,1.4,-1.0,-0.6%,-9,-3
NC(=O)c1c(NC(=O)CSc2nnc(Cc3ccccc3)n2Cc2ccco2)sc2c1CCC2,15,1.9,-2.7,8.4%[38.3 µM],-3,-4
COc1ccc(S(=O)(=O)N2CCOC23CCN(C(=O)c2c(F)cccc2Cl)CC3)cc1,12,-0.7,-4.9,-0.4%,-1,-5
CCc1ccc(NC(=O)c2sccc2-n2cccc2)cc1,12,-0.8,-4.8,0.6%,0,-5
Cc1ccccc1NC(=O)Cn1nc(-c2ccccc2)nc(Cc2ccccc2)c1=O,12,0.7,.,0.6%,.,.
O=C(CSc1nc(-c2ccccc2)cs1)Nc1cccc([N+](=O)[O-])c1,41,3.0,-3.5,7.5%,-19,-38
O=C(NC(=Nc1nc2ccccc2o1)NC(=O)c1ccccc1)c1ccccc1,0,-0.1,-8.6,2.0%,-6,-1
CCOC(=O)C(C)n1cnc2c(nnn2-c2ccc(C)cc2)c1=O (configuration not stated),0,-0.8,-2.8,2.9%[38.3 µM],4,-15
CCN(CC)CCNC(=O)c1cccc(NC(=O)C(=O)c2ccccc2NC(C)=O)c1,14,2.6,-1.2,-0.2%,3,-1
Cc1cc(=O)c2cc(C(=O)Nc3ccccc3C)ccc2[nH]1,0,-0.4,.,1.4%,.,.
CCOc1cc(N2CCOCC2)c(OCC)cc1NC(=O)Cn1nc(C)c([N+](=O)[O-])c1C,19,-0.6,1.4,1.9%,-3,0
COC(CNC(=O)c1cccnc1)OC,2,2.1,4.8,3.4%,5,27
O=S(=O)(c1cccs1)N1CCC2(CC1)OCCN2S(=O)(=O)c1ccccc1,7,1.2,-2.2,-3.7%,-8,-12
COc1ccc(C(N)CCc2ccc(C)o2)cc1 (configuration not stated),-1,-0.5,-2.6,6.7%,-16,-2
CCOC(=O)c1ccc(COC(=O)CNS(=O)(=O)c2ccccc2)cc1,-9,1.9,6.0,0.6%,7,-3
Cc1ccc2sc(N(CCN(C)C)C(=O)c3ccc(S(=O)(=O)N4CC(C)OC(C)C4)cc3)nc2c1C (configuration not stated),12,1.2,-2.6,1.4%,-12,-33
COc1ccc2nc(-c3ccccc3)[nH]c(=O)c2c1,14,0.3,-0.4,0.2%,1,.
CC1CN(C(=O)c2ccc(CNS(=O)(=O)c3cccc(C(F)(F)F)c3)cc2)CC(C)O1 (configuration not stated),14,0.0,5.8,5.1%,6,8

# Of the compounds above, two have a CF3 group:
structure,TRPML1 blocker,TRPML1 ag,D2 agonist,PINK1 modulator,Six1-Eya2 inh,D2 PAM
O=C(CSc1nc(=O)[nH]c2c1CCCC2)Nc1cc(C(F)(F)F)cc(C(F)(F)F)c1,-12,-0.1,-0.6,15%,9,-2
CC1CN(C(=O)c2ccc(CNS(=O)(=O)c3cccc(C(F)(F)F)c3)cc2)CC(C)O1 (configuration not stated),14,0.0,5.8,5.1%,6,8

# (listing goes on)
structure,TRPML1 blocker,TRPML1 ag,D2 agonist,PINK1 modulator,Six1-Eya2 inh,D2 PAM
O=C(N/C(=C\c1cccnc1)C(=O)N1CCC(O)CC1)c1ccccc1,-2,-0.7,-3.5,6.7%,11,3
CC(=O)N1CCc2cc(S(=O)(=O)NC(C)c3ccccc3)ccc21 (configuration not stated),-20,0.0,-5.1,2.1%,1,-13
CCCc1c(-c2cccc(Br)c2)ncn1Cc1ccccc1OC,.,1.5,.,27%,-11,.
CC(C)(C)c1ccc(-n2ncc3c2CCCC3NC(=O)c2cnccn2)cc1 (configuration not stated),19,1.5,-1.9,1.7%,-1,8
COc1ccc(OC)c(NC(=O)CSc2nc3c(c(=O)n(C)c(=O)n3C)n2C)c1,16,1.2,0.2,.,0,1
COC(=O)c1[nH]cnc1C(=O)c1ccccc1,9,0.4,-7.3,0.9%,26,-4
CC(C)OC(=O)/C(C#N)=C/c1cn(C)c2ccccc12,-5,4.3,-1.9,4.5%,8,-2
Cc1ccc(C)c(N2CCN(c3ncnc4c3nc3n4CCCCC3)CC2)c1,1,-1.1,.,3.2%,.,.
O=C(Cc1cccs1)Nc1ccc(F)c(S(=O)(=O)N2CCOCC2)c1,2,-0.5,-2.1,-0.8%,-3,2
Cc1nnsc1C(=O)N1CCCC(C(=O)c2ccc(C(F)(F)F)cc2)C1 (configuration not stated),-4,0.9,2.1,2.0%,-2,-6
Cc1ccc(S(=O)(=O)N2C[C@H]3N(C(=O)OC(C)C)N(C(=O)OC(C)C)C[C@H](OC(=O)Nc4cccs4)[C@@]3(O)C2)cc1,-10,-0.5,-8.8,1.3%,-6,-4
COc1ccc(N2C(=O)[C@@H]3Cc4ccccc4CN3C2=O)cc1,-5,-0.7,-0.3,7.0%,9,11
Cc1ccc2c(c1Br)/C(=N/N1C(=O)c3ccccc3C1=O)C(=O)N2,1,0.0,-18,-1.5%,1,-52
O=C(CCSc1ccccc1)OCn1nnc2ccccc2c1=O,2,0.5,1.4,-1.7%,7,-3
Cc1ccccc1NC(=O)C(C)O/N=C/c1cccc([N+](=O)[O-])c1 (configuration not stated),11,0.4,-2.5,0.3%,0,-7
CCn1cc(C(=O)N[C@H](C(=O)NCCN2CCOCC2)C(C)C)c(=O)c2cc3c(cc21)OCO3,-16,1.0,-3.3,-0.2%,-2,-11
Cc1ccc(-n2nnnc2SCCNS(=O)(=O)c2ccccc2)cc1C,38,1.3,2.5,-2.8%[38.3 µM],10,2
Cc1ccccc1Nc1c(-c2cccc(Cl)c2)nc2ncccn12,-2,-0.2,.,1.3%,.,.
Cn1cc(S(=O)(=O)N2CCOCC2)cc1C(=O)Nc1ccc(Cl)cc1,23,-0.1,-2.8,0.3%,-3,-3
O=C(Cn1c(=O)n(Cc2nc(-c3ccccc3)no2)c(=O)c2cc3c(cc21)OCO3)Nc1ccccc1,17,1.1,.,1.1%,.,.
Cc1ccc(CN2CCC(c3cc(-c4ccc(Cl)cc4)n[nH]3)CC2)cc1,-1,-0.2,5.9,-3.7%,-5,-25
NCCCCCC(=O)O,-2,-0.7,3.5,-0.1%,6,-2
CC1CCC(NC(=O)CCNS(=O)(=O)c2ccccc2)CC1 (configuration not stated),-5,-0.4,-2.2,1.0%,6,2
CC(=O)c1ccc(NC(=S)NCc2cccnc2)cc1,-12,0.4,0.6,-1.8%,7,-3
